Calb biofilm kill: mixture kills Candida albicans biofilm cells; inhibition, % at 7.6 µM; 120,000 compounds, 0.02% hits; C. albicans biofilm persisters + clotrimazole, fluorescence viability; primary screen in compound mixtures of four per well;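 active = inhibition above 30.3% in the primary screen of four-compound pools, then above 30% when the compound was retested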;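 also: compounds exposed to preformed 24 h biofilms for 48 h; the number belongs to the whole pool; some results filed as inactive read as strong as hits; inactives centre near 12; 0% = biofilm with clotrimazole alone and 100% = kill control; retested singly at about 60 µM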
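Test system: C. albicans CAF4-2 wild-type biofilms; buffer or medium: RPMI/MOPS medium, pH 7.0; schedule: 24 h biofilm formation, then 48 h compound exposure, 37 °C; detection: Alamar Blue fluorescence; measure: percent inhibition of biofilm viability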
Numbers without * were called inactive. These rows are one share of the data; count on the stated rates, not on these rows.

SMILES	Calb biofilm kill
CCOCCCNC(=S)N1CCCN(c2nc3c(C)c(C)ccc3cc2C#N)CC1	8.3
Cc1cccc(NC(=O)CN2C(=O)c3ccccc3C2=O)c1C	9.3
COc1ccc(S(=O)(=O)NCc2ccc(F)cc2)cc1OC	9.4
COc1ccc(CCC(=O)OCC(=O)c2cccc(OC)c2)cc1	15.4
Cc1cc(N=Nc2c(O)c3ccccc3[nH]c2=O)ccc1N=Nc1ccc(C(=O)N(C)C)cc1	16.7
Cc1[nH]c2ccccc2c1N=Nc1ccc(F)cc1	4.3
O=C(Nc1nc(-c2ccccc2)cs1)c1ccc(S(=O)(=O)N2CCc3ccccc32)cc1	16.9
O=C(CS(=O)(=O)c1ccc(C(F)(F)F)cn1)NNC(=O)c1ccccc1	14.4
CC(=O)c1ccc(NC(=O)c2ccc(NC(=O)CCS(=O)(=O)c3cccs3)cc2)cc1	-2.1
COc1ccccc1NC(=S)N(CCCN1CCOCC1)Cc1cccs1	12.2
N#Cc1ccsc1NC(=O)CN1CCN(c2ccccc2)CC1	3.8
COc1ccc(C(=O)Nc2ccc3nc(N4CCCCC4)cc(C)c3c2)cc1OC	13.5
Cc1ccc(NC(=O)CCC(=O)N/N=C/c2cccs2)cc1	19.2
Cc1cccc(N=Nc2cnc(N)s2)c1	11.8
CC(=O)c1ccc(S(=O)(=O)Nc2ccc(C(=O)NCC(c3ccccc3)N(C)C)cc2)cc1 (configuration not stated)	3.2
CC(C)Oc1ccc(NC(N)=O)cc1	13.7
CN(C)C(=O)c1cc(-c2ccccc2)no1	16.3
O=C(Nc1ccccc1O)c1nc(Cl)ccc1Cl	13.0
O=C(Nc1nnc(C2CC2)s1)c1ccco1	9.3
Cc1ccc(CONC(=O)c2ccccc2)cc1	10.9
CN(C)C(=S)Nc1ccc2c(c1)OCCO2	2.5
CCC(=O)c1ccc(OCC(O)Cn2nc(C)c(C(C)=O)c2C)cc1 (configuration not stated)	7.8
O=c1cc(CSc2nnc(COc3cccc4ccccc34)o2)c2ccccc2[nH]1	2.3
Cc1cccc(-n2cnc(C(=O)O)c2)n1	-14.0
COc1cccc(S(=O)(=O)N2CCN(C(=O)c3ccco3)CC2)c1	12.0
O=C(Nc1nnc(-c2ccncc2)o1)c1ccccc1	2.9
Cc1cccc(NC(=S)NC(=O)/C=C/c2ccco2)c1	15.3
Cc1ccc(CNC(=O)CN(C)S(=O)(=O)c2cccs2)cc1	5.8
CCN(CC)S(=O)(=O)c1cc(NC(=O)COC(=O)c2sc3ccccc3c2Cl)ccc1C	5.4
Cc1ccc(C(=O)OCc2c(C)noc2C)cc1NC(=O)c1ccco1	13.4
COc1cc(NC(=O)c2ccc3c(SCC(=O)O)c4c(nc3c2)CCCC4)cc(OC)c1OC	1.4
Cc1cccc(OCC(=O)Nc2ccc(S(=O)(=O)Nc3cc(C)nc(C)n3)cc2)c1	15.9
COc1ccc(C(=O)N/C(=C\c2cccc3ccccc23)C(=O)N2CCN(C)CC2)cc1OC	16.6
O=C(O)c1cccc(CSc2nc(-c3ccccc3)cc(C(F)(F)F)n2)c1	16.7
Cc1ccc(S(=O)(=O)N(C)C)cc1NC(=O)c1ccncc1	4.2
CCN1CCN(CC(=O)Nc2cc(C(F)(F)F)ccc2OCCOC)CC1	17.3
CC(=O)c1sc(-c2ccccn2)nc1C	6.0
CCCCCCNC(=O)N[C@@H](C(=O)NCCC[C@H]1CN2C(=NC[C@@H]2Cc2ccccc2)N1CCc1cccc(OC)c1)C(C)C	16.1
Cc1ccccc1-c1n[nH]c(=S)n1Cc1ccccc1	17.6
COc1ccc(Br)cc1CN1CCN(C(=O)c2ccc(OC)c(OC)c2)CC1	25.8
CCc1nc2c(c(=O)c3ccccc3n2C)c(=O)n1-c1ccc(F)cc1	15.9
Cc1onc(-c2ccccc2Cl)c1C(=O)O/N=C(\N)c1ccc([N+](=O)[O-])o1	12.9
Cc1sc2ncnc(N3CCCC(C)C3)c2c1C (configuration not stated)	-3.7
COc1cc(O)c(C(CC(=O)N2CCOCC2)c2ccc3c(c2)OCO3)c(OC)c1 (configuration not stated)	11.1
N#CCC(=O)N/N=C/c1cc([N+](=O)[O-])ccc1N1CCCC1	-3.0
COc1ccc(/C=C2\Cc3ccccc3C2=O)cc1OC	17.2
CCOC(=O)CNc1ncc(C(F)(F)F)cc1Cl	17.3
S=c1[nH]nc(-c2ccco2)n1C1CCCCC1	17.4
CC(/C=C/c1ccccc1)=N\NC(=O)CCc1ccccc1	8.1
O=C(COc1ccc(F)cc1)c1c(O)cc(O)cc1O	12.8

Overlap with the part before: 3 entries; new compounds follow.
SMILES	Calb biofilm kill
S=c1[nH]nc(-c2ccco2)n1C1CCCCC1	17.4
CC(/C=C/c1ccccc1)=N\NC(=O)CCc1ccccc1	8.1
O=C(COc1ccc(F)cc1)c1c(O)cc(O)cc1O	12.8
COc1ccc(CNC(=O)C/C(C)=N/NC(=O)c2ccc([N+](=O)[O-])cc2Cl)cc1	-0.5
COC1=C/C(=C/c2c(O)c(C#N)c3ccccn23)C=CC1=O	21.7
O=C(c1ccncc1)N1c2ccccc2Sc2ccccc21	0.7
CC1CCCCN1C(=O)c1ccc(NC(=O)c2ccccc2Cl)cc1 (configuration not stated)	10.0
CC1=C(C(=O)Nc2ccccc2C)C(c2ccc(C)o2)NC(=S)N1 (configuration not stated)	11.6
Cc1cc([N+](=O)[O-])nn1CC(=O)c1ccccc1	6.9
N#CCCN1CCN(C2=NC(=O)/C(=C\c3cccs3)S2)CC1	2.1
CCN(CC)S(=O)(=O)c1ccc(NC(=O)COC(=O)c2cc(S(=O)(=O)Nc3ccc(OC)cc3)ccc2O)cc1	0.4
CCOC(=O)C1(CCOc2ccccc2)CCN(Cc2ccc(COC)o2)CC1	17.6
CC(C)(C)n1cc(S(=O)(=O)c2ccccc2)[nH]c1=O	2.3
O=C(COc1ccccc1-c1ccccc1)N/N=C/c1ccc2ccccc2c1	13.7
Cc1cccc(N2CCC(N3CCN(C4CCCCC4)C(CCO)C3)CC2)c1C (configuration not stated)	5.3
COc1ccc(NC(=O)CN(c2ccc([N+](=O)[O-])cc2)S(=O)(=O)c2ccccc2)cc1	2.3
Cc1ccccc1NC(=O)CCN1C(=O)CSC1=O	12.2
O=C(c1ccc([N+](=O)[O-])s1)N1CCc2ccccc2C1	5.3
COc1ccc(C2CC(c3ccc(F)cc3)n3nc(NC(=O)c4ccco4)nc3N2)cc1 (configuration not stated)	22.2
Cn1c(=O)c(C#N)c(-c2ccc(F)cc2)c2cc(C(=O)c3cc(Cl)cc(Cl)c3O)cnc21	23.4
CCc1nnc(NC(=O)c2ccc(S(C)(=O)=O)cc2)s1	14.1
CCOC(=O)c1ccc(N2CN(CCc3ccccc3)CNC2=S)cc1	9.0
Cn1c(N)c(C(=O)COC(=O)c2cc(-c3ccco3)nc3ccccc23)c(=O)n(C)c1=O	10.7

A second format for some results above.
> COc1ccc(C2CC(c3ccc(F)cc3)n3nc(NC(=O)c4ccco4)nc3N2)cc1 (configuration not stated)
  Calb biofilm kill: 22.2

> Cn1c(=O)c(C#N)c(-c2ccc(F)cc2)c2cc(C(=O)c3cc(Cl)cc(Cl)c3O)cnc21
  Calb biofilm kill: 23.4

> CCc1nnc(NC(=O)c2ccc(S(C)(=O)=O)cc2)s1
  Calb biofilm kill: 14.1

> CCOC(=O)c1ccc(N2CN(CCc3ccccc3)CNC2=S)cc1
  Calb biofilm kill: 9.0

Other entries
SMILES	Calb biofilm kill
Cc1cccc2nc3ccccc3nc12	5.0
Cc1cc(NC(=O)/C=C/c2ccccc2)c(C(C)C)cc1O	3.3
Cc1ccc(C(=O)Nc2cc(=O)n(C)c(=O)n2C)o1	8.2
CCCCC(CC)c1nnc(NC(=O)c2cccs2)s1 (configuration not stated)	27.0
CN(C)CCN(C(=O)c1cc(Cl)sc1Cl)c1nc2ccc(F)cc2s1	19.0
Cc1nn(Cc2ccc(Cl)cc2)c(C)c1NC(=O)c1c(-c2ccccc2)noc1C	19.4
CCOC(=O)c1cc(-c2ccccc2)n(CCC(=O)N2CCN(c3ccccn3)CC2)c1C	14.6
O=S(=O)(c1ccc(NC(=S)Nc2ccccc2)cc1)N1CCOCC1	4.4
CC(C)CN(C(=O)CN1CCN(S(=O)(=O)c2ccccc2)CC1)c1c(N)n(CC(C)C)c(=O)[nH]c1=O	16.4
O=C(CCSc1nc2ccccc2s1)N/N=C/c1c(O)ccc2ccccc12	10.6
CC(=Nc1ccc(C)cc1C)c1sc2ccccc2c1O	9.0
CN(C(=S)NCCN1CCOCC1)C(c1ccccc1)c1ccccc1	7.8
COCCN(CCOC)C(=S)Nc1ccccc1	1.2
CC1(C)C(=O)OC(c2cccn2-c2ccc([N+](=O)[O-])cc2)C2(CCCCC2)C1=O (configuration not stated)	-4.2
Cc1cc(C(=O)OCC(=O)Nc2ccccc2)c(C)o1	8.2
CCOCCCNC(=O)/C=C1\Sc2ccccc2N(Cc2ccccc2F)C1=O	18.8
C[C@@H]1CC[C@H]2C(=O)N3[C@@H](CC[C@@H](C)[C@@H]3c3ccc(Br)cc3)C(=O)N2[C@H]1c1ccc(Br)cc1	-0.1
N#Cc1ccccc1COC(=O)c1cccnc1N	5.2
O=C(COC(=O)c1ccc(Br)o1)Nc1nc2ccccc2s1	17.5
N#CC(C#N)=C1c2cc(S(=O)(=O)NCCO)ccc2-c2ccc(S(=O)(=O)NCCO)cc21	10.0
C=CCn1cc(/C=C2\SC(N3CCOCC3)=NC2=O)c2ccccc21	11.6
Cc1ccc(NC(=S)NCc2ccc(S(N)(=O)=O)cc2)c(C)c1	8.6
Cc1c(C(=O)O)cccc1-c1ccc(/C=C2/NC(=O)N(c3ccccc3)C2=O)o1	24.3
O=S(N1CCc2ccccc21)C12CC3CC(CC(C3)C1)C2 (configuration not stated)	-2.9
BrC(=C\c1ccccc1)/C=N/Nc1nc2ccccc2[nH]1	12.0
SC(COCc1ccccc1)CN1CCN(Cc2ccc3c(c2)OCO3)CC1 (configuration not stated)	6.7
CN(C)c1ccc(C2/C(=C(/O)c3ccccc3)C(=O)C(=O)N2CCCC(=O)O)cc1 (configuration not stated)	18.2
Cc1cc(NC(=O)c2cc(F)c(F)cc2Cl)no1	14.0
Cc1cccc2sc(N(CCCN(C)C)C(=O)COc3ccc(Cl)cc3)nc12	12.3
C=CCNC(=S)NNC(=O)c1csc(C)c1C	6.7
Fc1ccc2c(c1)/C(=N/Nc1ccccn1)CCS2	-7.4
CCOC(=O)CCC(NC(=O)CCCCC(=O)NC(CCC(=O)OCC)C(=O)OCC)C(=O)OCC (configuration not stated)	12.2
O=C(COC(=O)c1cc(-c2cccc3ccccc23)nc2ccccc12)NC1CCS(=O)(=O)C1 (configuration not stated)	13.2
CCOC(=O)COc1cc2oc(=O)cc(C)c2cc1[N+](=O)[O-]	3.6
CCn1cc(C(=O)O)c(=O)c2cnc(N3CCN(C(=S)Nc4ccccc4Cl)CC3)nc21	25.9
O=c1c2cccc(Cl)c2nc2n1Cc1ccccc1-2	13.3
CCN(Cc1ccccc1)c1ccc(/C=N/NS(=O)(=O)c2ccc(C)c([N+](=O)[O-])c2)cc1	10.2
O=C(O)/C=C\c1ccccc1Oc1ccc(F)cc1	30.0
CN(C)NC(=O)c1cccc(Cl)c1	17.3
COC(=O)c1cc(N=C(N)N=C(N)N)cc(C(=O)OC)c1	12.6
O=C(NC12CC3CC(CC(C3)C1)C2)c1ccc(-c2ccc(Cl)cc2)o1	-5.1
Cc1[nH]c2ccccc2c1-c1csc(NC(=O)CN2CCOCC2)n1	15.1
N=C1S/C(=C\c2ccccc2F)C(=O)N1c1ccc(F)cc1	4.4
CN(Cc1cccs1)C(=O)Cn1cnc2cc([N+](=O)[O-])ccc2c1=O	5.7
Cc1ccccc1Cc1n[nH]c(=S)n1N	12.1
O=C(N/N=C/c1ccc(Cl)cc1)c1nc2ccc([N+](=O)[O-])cc2c(=O)[nH]1	9.6
COC(=O)c1cc(NC(=O)C2(S(=O)(=O)c3ccc(Cl)cc3)CC2)cc(C(=O)OC)c1	3.7
O=C(O)c1ccc(COc2ccc3ccccc3c2)o1	19.6
COc1ccc(N/C=C/C(=O)C(F)(F)F)cc1	2.7
COc1cc(/C=C/C(=O)N(Cc2ccccc2)c2ccccn2)cc(OC)c1OC	-3.6
The list goes on.
SMILES	Calb biofilm kill
O=C(Cc1cccs1)Nc1nnc(SCc2ccc(C(F)(F)F)cc2)s1	21.5
Cc1ccc(S(=O)(=O)c2nc(C)oc2N2CCOCC2)cc1	7.2
Cc1cccc(-n2c(-c3cccc([N+](=O)[O-])c3)nc3nc4ccccc4nc32)c1	20.2
O=C(COC(=O)C1(c2ccc(Cl)cc2)CCCC1)NCc1ccco1	3.4
N#Cc1c(F)cccc1N1CCC(C#N)CC1	18.8
NS(=O)(=O)c1ccc(CCNC(=O)c2cccc([N+](=O)[O-])c2)cc1	2.5
CC12CN3CC(C)(CN(C1)C3c1ccccc1F)C2 (configuration not stated)	-0.2
Cc1ccc(NC(=O)CSc2nnc(Cc3ccccc3)o2)c(C)c1	9.8
Cc1c(Cl)cccc1NC(=O)Nc1cc(C(C)(C)C)nn1C	12.4
CCc1ccc(NC(=O)C(C)OC(=O)c2cccc(S(=O)(=O)N3CCc4ccccc4C3)c2)cc1 (configuration not stated)	17.9
Cc1cc(C(=O)Nc2nc(C)c(C(=O)N(C)C)s2)ccc1[N+](=O)[O-]	8.2
Cc1ccc(Cl)cc1NC(=S)N(Cc1ccco1)C(C)c1cccs1 (configuration not stated)	13.2
CN(C)S(=O)(=O)c1ccc(N2CCCC2)c(C(=O)Nc2nc(-c3ccc(F)cc3)cs2)c1	-7.6
Cc1ccc2ncnc(Nc3cccc(C(=O)O)c3)c2c1	17.9
O=C(O)c1ccc(S(=O)(=O)Nc2ccc(O)c(Sc3nc4ccccc4s3)c2)cc1	22.1
CC1=C(C)CC(C(=O)Nc2nc(-c3ccc(C)cc3C)c(C)s2)C(C(=O)O)C1 (configuration not stated)	15.1

Assay outcomes: PubChem, PCMD
